Bioassay records: PubChem, ICCB-Longwood Screening Facility, Harvard Medical School
MenB inh: blocks the Mycobacterium tuberculosis MenB enzyme. MenB enzyme assay, absorbance read-out; some hits fall short of the stated cut. hit rate 0.43% among 100,000. inhibition, %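 (about 12 µg/mL by stock and volumes)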;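 active means mean of two replicates above 30%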;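 further: 0% = no compound and 100% = wells with inactive enzyme; the first replicate is given; strong numbers were not always called active; inactives centre near -10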
Target sequence (P9WNP5 whole entry, looked up): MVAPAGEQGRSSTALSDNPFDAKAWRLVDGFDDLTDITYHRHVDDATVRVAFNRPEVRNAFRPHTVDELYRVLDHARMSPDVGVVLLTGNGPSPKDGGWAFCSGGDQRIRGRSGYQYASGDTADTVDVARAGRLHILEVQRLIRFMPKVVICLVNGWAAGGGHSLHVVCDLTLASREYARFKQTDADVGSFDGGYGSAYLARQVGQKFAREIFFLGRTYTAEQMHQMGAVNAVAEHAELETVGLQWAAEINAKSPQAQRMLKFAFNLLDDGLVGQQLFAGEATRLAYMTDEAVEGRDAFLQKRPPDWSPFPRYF
Mtb MbtI inh: blocks the Mycobacterium tuberculosis siderophore enzyme MbtI; P9WFX0; purified MbtI enzyme, fluorescence intensity read-out; inhibition, %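 (about 17 µg/mL by stock and volumes)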; hit rate 0.89% among 100,000;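 active means above 50% in both replicates, above 80% if mildly self-fluorescent; inactive means the rest, strongly fluorescent compounds included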;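 further: 0% = mean of negative and 100% = mean of positive controls; one replicate is shown; some compounds called inactive have numbers as strong as hits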
PV pol inh: inhibitors of poliovirus RNA polymerase binding and polymerization | P03300 | poliovirus polymerase elongation, fluorescence polarization; active compounds read low | % elongation, % (compound at 16.7 µg/mL) | hit rate 0.66% among 150,000 | AID 588519; in the data active means % elongation below about 90%; further: some results filed as inactive read as strong as hits
Target sequence (P03300 1749-2209 limits assumed): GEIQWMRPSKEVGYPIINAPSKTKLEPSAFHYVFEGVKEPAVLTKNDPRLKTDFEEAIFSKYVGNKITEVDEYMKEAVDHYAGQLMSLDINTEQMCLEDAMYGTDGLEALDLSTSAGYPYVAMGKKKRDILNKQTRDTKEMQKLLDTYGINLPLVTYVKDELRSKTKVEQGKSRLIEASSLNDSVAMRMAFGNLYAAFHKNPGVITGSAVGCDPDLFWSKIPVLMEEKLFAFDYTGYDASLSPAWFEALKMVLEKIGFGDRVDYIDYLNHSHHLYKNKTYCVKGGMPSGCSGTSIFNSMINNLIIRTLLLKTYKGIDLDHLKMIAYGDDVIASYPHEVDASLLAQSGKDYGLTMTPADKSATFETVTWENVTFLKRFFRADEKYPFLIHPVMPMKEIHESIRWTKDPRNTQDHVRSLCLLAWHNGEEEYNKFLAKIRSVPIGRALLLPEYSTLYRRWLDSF
PV pol inh intensity: further read-out of PV pol inh, marked with its call; % elongation; measured here: total intensity read-out; formula for this scale not given here;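 total fluorescence in place of polarization; lower means less elongation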
* marks the source's active call; other numbers are inactive results; / = no result given; & = joins results of further samples.

1) Oc1ccc2c(CN3CCCCC3)c(O)ccc2c1CN1CCCCC1
2) N#CCCN(Cc1ccccc1)C(=O)c1nccnc1C(=O)O
3) N#CCCn1c(SCC(=O)Nc2cccc3ccccc23)nc2ccccc21
4) CCOc1ccc(OCCCCn2ccnc2)cc1
5) COc1ccc(CNC(=O)[C@@H]2CCCN2C(=O)OC(C)(C)C)cc1OC
6) O=S(=O)(Nc1ccncc1)c1ccc2ccccc2c1
7) CCOC(=O)N1CCC(NC(=O)Nc2ccc3c(c2)CCO3)CC1
8) COc1ccc(NS(=O)(=O)c2ccc3c4c(cccc24)C(=O)S3)cc1

compound no.	1	2	3	4	5	6	7	8
PV pol inh intensity	101	101	100	101	100	102	105	102
Mtb MbtI inh	-12	4	65	-8	26	/	-12	-6
MenB inh	/	-9	-21	2	5	-4	0	-44
PV pol inh	104	102	100	98	101	103	103	101

9) Brc1ccc(-c2noc(-c3ccccc3)n2)o1
10) Cc1ccc(NC(=O)CSc2nc(C)cc(C)c2C#N)cc1
11) COc1ccc(C(CC(=O)c2cccs2)SCc2ccco2)cc1OC (stereo unspecified)
12) CC(C)COc1ccc(C(=O)NN)cc1
13) O=C(COC(=O)C1CCN(S(=O)(=O)c2cccs2)CC1)c1cc2ccccc2o1
14) O=C(O)c1ccc(N2CCCC2=O)cc1O
15) O=C(O)CC(Cc1ccccc1)C(=O)O (stereo unspecified)
16) COC(=O)C(O)(CC(=O)O)C(F)(F)F (stereo unspecified)

compound no.	9	10	11	12	13	14	15	16
PV pol inh intensity	105&103	102	105	108	153	103	99	107
Mtb MbtI inh	-16	3	-4	-6	-20	-18	1	-10
MenB inh	-64	40*	-18	-1	-14	-11	16	-9
PV pol inh	104&103	98	107	106	138	99	101	105

Reprinted at random: two compounds from above.
11) COc1ccc(C(CC(=O)c2cccs2)SCc2ccco2)cc1OC (stereo unspecified)
14) O=C(O)c1ccc(N2CCCC2=O)cc1O

compound no.	11	14
PV pol inh intensity	105	103
Mtb MbtI inh	-4	-18
MenB inh	-18	-11
PV pol inh	107	99

(further entries)
17) Cc1ccc(N2CCN(C(=O)Cn3nc(Cc4cccnc4)c4ccccc4c3=O)CC2C)cc1 (stereo unspecified)
18) O=C(COC(=O)CCc1c[nH]c(=O)[nH]1)Nc1cccc(Cl)c1
19) CCN(CC)c1ccc2nnc(CCC(=O)NCC3CCN(Cc4ccc(C)cc4)C3)n2n1 (stereo unspecified)
20) CC1CCCC(C)N1C(=O)NC(=O)c1ccccc1 (stereo unspecified)
21) S=C(SCc1nnc(-c2ccc(Cl)cc2)o1)N1CCCC1
22) COc1ccc(S(=O)(=O)N2CCN(C(=O)c3cc(-c4ccccc4OC)n[nH]3)CC2)cc1
23) Cc1[nH]n(-c2ccccc2)c(=O)c1/C=C1\C=c2ccccc2=NC1=O
24) O=C(/N=C1\N=C2N=CC=CN2Cc2ccccc21)Nc1ccc(Cl)cc1

compound no.	17	18	19	20	21	22	23	24
PV pol inh intensity	104	106	105	99	110	107	103	106
Mtb MbtI inh	-13	-1	24	-15	-4	1	-2	1
MenB inh	-8	11	-14	0	-21	-18	8	-3
PV pol inh	103	101	103	100	105	103	101	103

25) Cc1[nH]c2ccccc2c1C(Nc1nccs1)c1ccc(C(C)C)cc1 (stereo unspecified)
26) O=C(NC1CCCC1)c1nnc(Cc2ccc(Cl)cc2)o1
27) CCOC(=O)N1CCN(S(=O)(=O)c2ccc(-n3cnnn3)cc2)CC1
28) CN(/N=C\C=C\c1ccccc1)c1ccccn1
29) CN(C(=O)NC(=O)C1=C(N2CCOCC2)/C(=C\c2ccccc2)CC1)S(C)(=O)=O
30) CCn1c(=NC(=O)c2ccc(S(=O)(=O)N3CCOCC3)cc2)sc2ccccc21
31) CCNC(=O)C1CCN(c2ncnc3c2nc2n3CCCCC2)CC1
32) Cc1cc(C)cc(NC(=O)NC(C)(C)C)c1

compound no.	25	26	27	28	29	30	31	32
PV pol inh intensity	96	108	104	103	108	100	99	101
Mtb MbtI inh	8	-8	16	0	-150	6	6	-5
MenB inh	-3	-20	13	-31	-30	-18	10	-4
PV pol inh	101	103	103	99	103	104	103	103

From compound 27 as far as 32, copied from above:
27) CCOC(=O)N1CCN(S(=O)(=O)c2ccc(-n3cnnn3)cc2)CC1
28) CN(/N=C\C=C\c1ccccc1)c1ccccn1
29) CN(C(=O)NC(=O)C1=C(N2CCOCC2)/C(=C\c2ccccc2)CC1)S(C)(=O)=O
30) CCn1c(=NC(=O)c2ccc(S(=O)(=O)N3CCOCC3)cc2)sc2ccccc21
31) CCNC(=O)C1CCN(c2ncnc3c2nc2n3CCCCC2)CC1
32) Cc1cc(C)cc(NC(=O)NC(C)(C)C)c1

compound no.	27	28	29	30	31	32
PV pol inh intensity	104	103	108	100	99	101
Mtb MbtI inh	16	0	-150	6	6	-5
MenB inh	13	-31	-30	-18	10	-4
PV pol inh	103	99	103	104	103	103

More compounds
33) O=C1Nc2ccccc2C1Cc1ccc(N=Cc2cc(Cl)cc(Cl)c2O)cc1 (stereo unspecified)
34) Cn1c(=O)c2c(=S)nc(C3CC3)[nH]c2n(Cc2ccccc2)c1=O
35) Cc1ccc(-c2nn(CCC(=O)N3CCCC3)c(=O)c3ccccc23)cc1
36) COc1ccc(NC(=O)[C@@H]2CCCN2S(=O)(=O)c2ccc(C)cc2)cc1
37) C=C(C)Cc1c(C)nc(SCC(=O)C(C)(C)C)nc1OC(=O)N(C)C
38) O=C(O)CSc1c2c(nc3cc(C(=O)NC4CCCCCC4)ccc13)CCC2
39) CC(OC(=O)C1CC1)C(=O)Nc1ccnn1C(C)C (stereo unspecified)
40) CC1CCN(C(=O)C2CCN(S(=O)(=O)c3cnc[nH]3)CC2)CC1

compound no.	33	34	35	36	37	38	39	40
PV pol inh intensity	118	86	109	105	105	96	98	99
Mtb MbtI inh	5	-23	-81	-21	-3	4	-2	-8
MenB inh	-23	-22	-5	-27	-15	-4	6	-18
PV pol inh	111	95	104	113	103	100	97	102

41) CC(C(=O)NCCCN1CCOCC1)N1c2cccc3cccc(c23)S1(=O)=O (stereo unspecified)
42) Cc1sc2c(c1C)c(=O)n(-c1ccc(Cl)cc1)c(=O)n2CC(=O)NC1CCCCC1
43) CN(Cc1ccccc1)C1CCN(Cc2ccncc2)CC1
44) Cc1cc(N2C(=O)CS/C2=C(/C#N)C(=O)C(C)(C)C)ccc1Cl
45) CCCCc1ccc(S(=O)(=O)NNC(=S)NCc2ccco2)cc1
46) CCN(c1ccccc1)S(=O)(=O)c1ccc(CN2C(=O)c3cccnc3C2=O)cc1
47) COC(=O)C(NC=O)C(O)(Cc1ccccc1)C(F)(F)F (stereo unspecified)
48) CC1CCN(C(=O)CCCN2C(=O)C(c3ccccc3)Oc3cccnc32)CC1 (stereo unspecified)

compound no.	41	42	43	44	45	46	47	48
PV pol inh intensity	102	98	100	127	99	103	108	102
Mtb MbtI inh	21	11	3	0	5	-2	-5	-8
MenB inh	-4	4	15	-42	-4	-26	-4	-5
PV pol inh	103	102	102	120	100	103	101	102

49) Nc1ccn(C2CC(O)C(CO)O2)c(=O)n1 (stereo unspecified)
50) CC(C)NC(=O)C1CCCN(S(=O)(=O)c2ccc(-n3cnnn3)cc2)C1 (stereo unspecified)
51) CCS(=O)(=O)N1Cc2ccccc2CC1C(=O)NC1=NCCS1 (stereo unspecified)
52) CN(C(=O)CSc1ncc(-c2ccccc2)n1C)C1(C#N)CCCCC1
53) Nc1nc2c(s1)CCc1nonc1-2
54) CCc1ccc(NC(=O)CN(C)S(=O)(=O)c2cccc3cccnc23)cc1
55) CC12CNCC(C)(CNC1)C2=O
56) Oc1ccc(Cl)cc1C=NCCc1c[nH]c2ccccc12

compound no.	49	50	51	52	53	54	55	56
PV pol inh intensity	98	103	105	109	89	101	103	102
Mtb MbtI inh	/	-7	-4	-5	39	4	4	/
MenB inh	1	-26	2	5	-62	-20	-10	-32
PV pol inh	103	101	105	104	96	101	101	108

57) CC(c1ccccc1F)n1cc(C(=O)NCC2CCCO2)nn1 (stereo unspecified)
58) Cc1nn(Cc2ccccc2)c(C)c1CC(=O)O
59) CCOC(=O)c1cn2nc(Oc3ccc(C(=O)OC)cc3)ccc2n1
60) CS(=O)(=O)N(CC(=O)N1CCOCC1)c1cccc2ccccc12
61) CC1Cc2ccccc2N1S(C)(=O)=O (stereo unspecified)
62) CCOC(=O)c1nnn2c1nc(N(CC)CC)c1ccccc12
63) CC1(C)NC(C)(C)c2nonc2/C1=N\O
64) Cc1cccc(/C=N/n2cnnc2)c1

compound no.	57	58	59	60	61	62	63	64
PV pol inh intensity	103	103	103	102	102	98	102	99
Mtb MbtI inh	-7	-4	-26	-3	-12	0	-5	8
MenB inh	10	5	-2	5	1	4	-3	/
PV pol inh	102	101	105	101	99	99	103	103

65) O=C(O)CSCC(=O)Nc1nc(-c2cccs2)cs1
66) CCOc1ccccc1CNC(=O)CC(C(=O)N1CCc2ccccc21)n1ccnc1 (stereo unspecified)
67) CN1c2ccccc2C(=O)NC1c1cccc(C(F)(F)F)c1 (stereo unspecified)
68) c1ccc2c(NCC3CCCO3)nc(N3CCCCC3)nc2c1 (stereo unspecified)
69) Cc1ccc(C)c(Cn2c(CO)nc3ccccc32)c1
70) Cc1oc(-n2cccc2)c(C#N)c1C(=O)NCc1ccc(Cl)cc1
71) CCC(C)NC(=O)c1ccc(OC(C)=O)cc1 (stereo unspecified)
72) CCOc1cc(S(=O)(=O)n2cccn2)ccc1F

compound no.	65	66	67	68	69	70	71	72
PV pol inh intensity	103	103	95	99	106	113	105	103
Mtb MbtI inh	54	-15	102	88	-15	-11	/	6
MenB inh	-11	-9	6	42	-21	-8	-17	21
PV pol inh	101	99	99	101	104	103	103	102

73) C[C@]12C=CC(=O)C=C1CC[C@H]1[C@@H]3C[C@@H](O)[C@](O)(C(=O)CO)[C@@]3(C)C[C@H](O)[C@@]12F
74) COc1cc2c3nc4n(c(=O)c3n(C)c2cc1OC)CCS4
75) N#CC1c2ccccc2C=CN1C(=O)c1ccccc1F (stereo unspecified)
76) Cc1ccc(Cl)cc1N1CCN(C(=O)C2CCCN2c2nnc(N3CCCC3=O)s2)CC1 (stereo unspecified)
77) CCCNC(=O)N1CCN(Cc2ccc(F)cc2Cl)CC1
78) COC(=O)C(C)N1C(=O)S/C(=C/c2ccc(C)o2)C1=O (stereo unspecified)
79) COc1ccc(CCN(C)Cc2ccccc2C)cc1OC
80) N#Cc1cccc(NCCN2CCNC2=O)n1

compound no.	73	74	75	76	77	78	79	80
PV pol inh intensity	100	97	108	100	104	132	104	111
Mtb MbtI inh	0	90	/	2	-20	11	0	76
MenB inh	-4	-19	-10	-26	-7	-129	15	1
PV pol inh	100	103	103	105	101	111	101	111

81) Cc1c(N)c(=O)n(-c2ccccc2)n1C
82) N#CCc1nc2ccccc2o1
83) COc1cccc(OC)c1C(=O)N1CCN(c2ncnc3scc(-c4ccccc4)c23)CC1
84) N=c1c2c(-c3ccccc3)c(-c3ccccc3)n(Cc3ccco3)c2ncn1CCCN1CCOCC1
85) COc1ccc(S(=O)(=O)N(CC(=O)O)C2CCCCC2)cc1OC
86) O=C(NC1CC1)c1c[nH]c2ccc(S(=O)(=O)Nc3cccc(C(F)(F)F)c3)cc2c1=O
87) CN(C)c1cccc(N=Cc2c(O)n(Cc3ccc(F)cc3)c(=O)[nH]c2=O)c1
88) CNC(=O)COc1ncnc2sccc12

compound no.	81	82	83	84	85	86	87	88
PV pol inh intensity	100&101	105	100	102	107	96	103	113
Mtb MbtI inh	7&-18	-13	0	-33	10	-481	-4	-6
MenB inh	-4&3	/	-5	-31	-1	-4	-7	-3
PV pol inh	99&100	102	103	99	97	98	106	109

89) Oc1ccc(Cl)cc1N=Cc1ccco1
90) c1ccc(CSc2ncn[nH]2)cc1
91) C=CCNC(=O)C1=CC(c2ccc(C)cc2)=NS(=O)(=O)N1C
92) CCOC(=O)c1cc2c(ccn2-c2ccc(F)cc2)n1CC(=O)NC1CCCCC1
93) Cn1cc(C=C2C(=O)OC3(CCCCC3)OC2=O)c2ccccc21
94) COc1ccc(N(C(=O)/C=C/c2ccc(OC)c(OC)c2)C2=CC3CCC(C2)N3C)cc1 (stereo unspecified)
95) CC(=O)Nc1cc(C(C)(C)C)nn1C
96) Cc1ccc2nc3c(cc(C(N)=O)c(=N)n3Cc3cccnc3)c(=O)n2c1
97) CCN(Cc1ccccc1)C(=O)Cn1c(=O)n(C2CCCCC2)c(=O)c2ccccc21
98) Cc1ccc2[nH]c(=O)c(CN(CC3CCCO3)C(=O)c3ccco3)cc2c1 (stereo unspecified)

compound no.	89	90	91	92	93	94	95	96	97	98
PV pol inh intensity	111	104	102	110	108	105	100	107	103	107
Mtb MbtI inh	-5	/	2	90	-6	0	-6	136	9	/
MenB inh	/	-11	-1	5	-54	-26	-92	-42	-13	-11
PV pol inh	103	100	102	99	104	103	106	102	100	103
